# HPGD inh – qHTS Assay for Inhibitors of HPGD (15-Hydroxyprostaglandin Dehydrogenase); Potency, µM, for inactives: top-dose activity change, negative = inhibition, usual class: inhibitors; 15-hydroxyprostaglandin dehydrogenase [NAD(+)] (Homo sapiens), P15428; purified HPGD, NADH fluorescence kinetic, PGE2 substrate; 150,000 compounds, 4.3% hits; active = well fitted inhibition curve with a large enough effect (not every such curve was filed as active); inconclusive = small, poorly fitted or top-dose-only effect, or another doubt; inactive = no such curve, though single readings can be large or run the other way;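 note: top concentration of the series not given in the record; plate controls included wells without enzyme; inactives centre near -10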
# Target sequence (P15428 whole entry, looked up): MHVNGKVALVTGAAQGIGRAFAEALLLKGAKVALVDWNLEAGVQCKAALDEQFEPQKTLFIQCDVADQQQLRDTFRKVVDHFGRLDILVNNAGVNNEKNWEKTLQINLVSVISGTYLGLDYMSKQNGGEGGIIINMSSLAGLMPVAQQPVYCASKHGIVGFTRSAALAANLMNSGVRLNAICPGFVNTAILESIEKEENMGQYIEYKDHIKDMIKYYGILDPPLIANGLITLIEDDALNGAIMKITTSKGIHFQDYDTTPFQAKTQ
#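 NADH formation kinetics: reaction with 30 uM PGE2 and 1 mM NAD+ (final), 20 nM enzyme, Tris-HCl pH 8 with Tween 20, after 15 min compound preincubation at room temperature. Fluorescence change, last versus first of five reads.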
# Starred values were filed as active, the others as inactive; ? = inconclusive; & = joins results of further samples; ! = repeats disagree; [ ] = dose if it differs, or a comment. % is set by controls: 0 for no effect and ±100 for the full control effect; potency is the fitted concentration of half-maximal effect.
SMILES,HPGD inh
CCn1cc(C(=O)O)c(=O)c2ccc(C)nc21,-12.4%&-9.3%&-9.5%&-11.3%&-5.6%&-11.7%
COC(=O)c1cc2c(cn1)[nH]c1ccccc12,?
CCCN(CCC)C1CCc2cccc(O)c2C1 (stereo not given),-16.2%
CC1(C)C(C(=O)NN2C(=O)c3ccccc3C2=O)C1(C)C,-6.9%
C=CCn1c(O)c(C(C)=NCCO)c(=O)[nH]c1=O,-6.3%
Fc1ccccc1N1CCN(Cc2c(F)cccc2F)CC1,-18.7%
CCOC(=O)c1ccc(NC(=O)c2c(O)[nH]c(=O)[nH]c2=O)cc1,14.1µM*
CCC(=O)Nc1cc(C(=O)N2CCC3(CC2)OCCO3)ccc1S(=O)(=O)c1ccc(C)cc1,-17.1%
NCCc1ccccn1,-14.9%
Clc1ccc2c(c1)C(c1ccccc1Cl)=NCc1nnc(Br)n1-2,-26.5%
Cc1cccnc1-n1c(C)nc2ccccc2c1=O,-5.2%
CC(C)CC1C(C#N)=C(N)Oc2c1c(=O)oc1ccccc21 (stereo not given),-13.5%
CCOc1ccc(-n2c(O)c(C=Nc3ccc(N(CC)CC)cc3)c(=O)[nH]c2=O)cc1,-6.6%
O=C(CN1CCOCC1)NCC(=O)Nc1ccc(Br)cc1C(=O)c1ccccc1,-12.2%
C[C@]12CCC(=O)C=C1CC[C@@H]1[C@@H]2CC[C@@]2(C)[C@H]1CC[C@]2(C)O,-5.0%&-6.6%
Ic1ccccc1CNC1C2CCN(CC2)C1C(c1ccccc1)c1ccccc1 (stereo not given),-7.0%
CCCN1CCc2cc(O)cc3c2C1Cc1ccc(O)c(O)c1-3 (stereo not given),?
Cc1ccc(CN2CCN(C)CC2)c(C)c1,-6.4%
CNc1ccc2oc(C[C@@H]3OC4(CC[C@@H]3C)O[C@H](C(C)C(=O)c3ccc[nH]3)[C@H](C)C[C@H]4C)nc2c1C(=O)O (stereo not given in full),-18.6%
CCCCN1C(=O)/C(=C/c2ccc(N(C)C)cc2)C(=O)N(Cc2ccco2)C1=O,25.1µM*
Cc1cc(C)nc(/N=C(\N)c2c(O)[nH]c(=O)[nH]c2=O)n1,-19.1%
CN1CCN(Cc2ccc(Br)s2)CC1,-3.1%
CC(C)(C)OOC(=O)c1ccccc1,-8.8%
N#C/C=C/C#N,-13.0%
O=C1NC(=O)C2(Cc3ccccc3N3CCCC32)C(=O)N1Cc1ccccc1 (stereo not given),-9.2%
# The list continues:
SMILES,HPGD inh
NCCCP(=O)(O)CCc1ccccc1,-6.8%
CCCCCC1C(=O)O[C@H](C)[C@@H](NC(=O)c2cccc(NC=O)c2O)C(=O)OC(C)C1OC(=O)CC(C)C (stereo not given in full),?
c1ccc(CNCCc2ccc3c(c2)OCO3)nc1,3.5%
CN1[C@@H]2CC[C@H]1CC(O[C@@H](c1ccccc1)c1ccc(Cl)cc1)C2 (stereo not given in full),-3.5%
COc1ccc(-n2c(C)nc3cc(C(=O)N4CCC5(CC4)OCCO5)ccc32)cc1,12.6µM*
O=C(Oc1ccccc1)N1CCC2(CC1)CN(C(c1ccccc1)c1ccccc1)C2,-6.7%
C=CCn1c(O)c(C(CC)=NCc2cc(OC)cc(OC)c2)c(=O)[nH]c1=O,-8.7%
COc1ccc(OC)c(-n2c(O)c(C=NCc3ccc4c(c3)OCO4)c(=O)[nH]c2=O)c1,-28.9%
CN1CCN(c2c[nH]c(=O)[nH]c2=O)CC1,-12.2%
CCOC(=O)C(O)(c1ccc(N(C)C(=O)c2ccc(Cl)c(Cl)c2)cc1)C(F)(F)F (stereo not given),-7.7%
CN1CCN(c2nc([N+](=O)[O-])nn2C)CC1,0.1%
CCCCn1c(O)c(C(CC)=NC(C)c2ccccc2)c(=O)[nH]c1=O (stereo not given),-8.9%
O=[N+]([O-])c1cc(C(F)(F)F)cc([N+](=O)[O-])c1Cl,?
COc1ccc(NP(=O)(Oc2ccc(Cl)cc2)Oc2ccc(Cl)cc2)cc1OC,-16.6%
NC(=O)c1ccc(N=Nc2c(O)[nH]c(=O)[nH]c2=O)cc1,-13.4%
OC(c1ccccc1)(c1ccccc1)c1ccncc1,-0.4%
NC(=O)c1c(NC(=O)c2ccc(S(=O)(=O)N(CCCl)CCCl)cc2)sc2c1CCCCC2,-14.7%
NC(=NCCC[C@H](N)C(=O)O)N[N+](=O)[O-],-4.5%&-11.3%
Cc1cc(C)cc(-n2c(C)cc(/C=C3\C(=O)NC(=O)N(C)C3=O)c2C)c1,-2.9%
CC(C)c1ccc(N2C(=O)NC(=O)/C(=C\c3cnc(-c4ccccc4)nc3)C2=O)cc1,25.1µM*
CC(C)CCCn1c(O)c(/C=C2/C=CC=N2)c(=O)[nH]c1=O,-12.4%
CC(=O)OC1CC[C@@]2(C)C3CC[C@]4(C)C(=O)CCC4C3CC[C@H]2C1 (stereo not given in full),4.0%
CCCC(=O)OCC[N+](C)(C)C,-4.9%
CCC(NC(=O)OC(C)(C)C)C(=O)Oc1cc(C)cc2oc(=O)c3c(c12)CCC3 (stereo not given),-6.8%
COc1ccc(CC(=O)N2CCN(C)CC2)cc1OC,-10.5%

# Given as labelled records: part of the list above
canonical_smiles: NCCCP(=O)(O)CCc1ccccc1
- HPGD inh: -6.8%
canonical_smiles: CCCCCC1C(=O)O[C@H](C)[C@@H](NC(=O)c2cccc(NC=O)c2O)C(=O)OC(C)C1OC(=O)CC(C)C (stereo not given in full)
- HPGD inh: ?
canonical_smiles: c1ccc(CNCCc2ccc3c(c2)OCO3)nc1
- HPGD inh: 3.5%
canonical_smiles: CN1[C@@H]2CC[C@H]1CC(O[C@@H](c1ccccc1)c1ccc(Cl)cc1)C2 (stereo not given in full)
- HPGD inh: -3.5%

# New compounds follow:
SMILES,HPGD inh
CCNC[C@H](O)c1cccc(O)c1,-6.7%
CC(=O)NC(Cc1ccc(N(CCCl)CCCl)cc1)C(=O)O (stereo not given),-12.2%
COc1ccc(NP(=O)(Oc2ccccc2OC)Oc2ccccc2OC)cc1,-10.8%
c1ccc2c(c1)-c1cccc3cccc-2c13,-23.9%
CCOC(=O)CCN=Cc1c(O)n(-c2ccc(Br)cc2)c(=O)[nH]c1=O,-12.2%
CCCn1c(C)c(C(=O)c2ccc3ccccc3c2)c2ccccc21,?
CCOc1ccc(-n2c(O)c(C=NCCCn3ccnc3)c(=O)[nH]c2=O)cc1,-6.8%
N#C/C(=C\c1cccc(O)c1)C(=O)O,-29.6%
c1cc(N2CCCC3(CCNCC3)C2)ccn1,-5.5%
CC(=O)c1c(C)[nH]c(C(=O)N2CCC3(CC2)OCCO3)c1C,-10.0%
CC(C)(O)[C@H]1O[C@@H]2CC[C@]3(C)[C@@]4(C)c5[nH]c6ccccc6c5C[C@@H]4CC[C@]3(O)C2=CC1=O,-6.0%
N#Cc1ccc(CN2CCC3(CC2)CCN(C(=O)Oc2ccccc2)CC3)cc1,-8.8%
COc1cc(C2c3cc4c(cc3C(OC(C)=O)[C@H]3COC(=O)C23)OCO4)cc(OC)c1OC (stereo not given in full),-3.8%&-11.0%
Cc1cccc(-c2nc3ccccc3c(=O)n2-n2cccc2)c1,-5.6%
COC1=C(C)C(=O)c2c(c(COC(N)=O)c3n2C[C@@H]2[C@@H]3N2C)C1=O (stereo not given in full),-3.7%
CCN1CCN(Cc2cc(OC)c(OC)cc2[N+](=O)[O-])CC1,-9.5%
CCOC(=O)c1cc2c(cn1)[nH]c1ccccc12,-24.7%
CCOC(=O)C(O)(c1ccc(N(CC)S(=O)(=O)c2ccc(C)cc2)cc1)C(F)(F)F (stereo not given),-13.7%
CN(C)C(=O)Oc1cccc(NC(=O)N2CCOCC2)c1,-10.7%
O=[N+]([O-])c1cc([N+](=O)[O-])c2ccccc2c1,-10.3%
C(=NCCN1CCOCC1)=NC1CCCCC1,-4.5%
CCOCN(C(=O)CCl)c1c(C)cccc1CC,-5.1%&-12.8%
COP(=O)(OC)C1(O)C(=O)Nc2ccc(Br)cc21 (stereo not given),-8.2%
O=c1[nH]c(=O)n(-c2ccccc2)c(O)c1/C=C1/C(c2ccccc2)=Nc2ccccc21,25.1µM*
Cc1nc2cc(F)ccc2n1C1CCN(Cc2nnnn2CCc2ccccc2)CC1,-2.5%

# 2 of the compounds above, with each value named.
Structure: N#Cc1ccc(CN2CCC3(CC2)CCN(C(=O)Oc2ccccc2)CC3)cc1
  HPGD inh: -8.8%

Structure: COc1cc(C2c3cc4c(cc3C(OC(C)=O)[C@H]3COC(=O)C23)OCO4)cc(OC)c1OC (stereo not given in full)
  HPGD inh: -3.8%&-11.0%

# More results follow.
SMILES,HPGD inh
COc1cc2c(cc1-c1cc3cc4ccoc4cc3oc1=O)OCO2,-10.3%
CCn1c(N)c(C(=O)NC)sc1=S,3.55µM*
Cc1ccc(N2C(=O)NC(=O)/C(=C\c3ccc(N4CCOCC4)cc3)C2=O)cc1,35.5µM*
COc1ccc(C2C([N+](=O)[O-])=C(N)Oc3c2c(=O)oc2ccccc32)cc1 (stereo not given),-4.9%
O=C(C1CC(=O)N(c2ccc(F)c(Cl)c2)C1)N1CCC2(CC1)OCCO2 (stereo not given),-2.4%
CCCCn1c(=O)c(C(=O)Nc2nc3ccccc3[nH]2)c(O)c2ccccc21,-10.1%
Cc1nc(-c2ccc(-c3ccc(C(=O)N4CCc5cc6c(cc54)C4(CCN(C)CC4)CO6)cc3)c(C)c2)no1,-6.7%&-22.6%
CCC(=NCC1CCCO1)c1c(O)n(Cc2ccccc2)c(=O)[nH]c1=O (stereo not given),-26.2%
CN(C)CCCc1cccnc1,-7.1%
c1cnc(N2CCC3(CCNCC3)CC2)nc1,-12.9%
CNC(C)C(O)c1ccccc1 (stereo not given),-1.9%
O=C1NC(=O)N(Cc2ccco2)C(=O)/C1=C/c1ccc(-c2cccc([N+](=O)[O-])c2)o1,5.01µM*
COC[C@H]1OC(=O)c2coc3c2[C@@]1(C)C1=C(C3=O)C2CCC(=O)[C@@]2(C)C[C@H]1OC(C)=O (stereo not given in full),35.5µM*!
COc1ccc(C2SCC(=O)Nc3c2c(C)nn3-c2ccccc2)cc1 (stereo not given),12.6µM*
COc1ccc(-n2c(/C=C/c3ccc4c(c3)OCO4)nc3ccccc3c2=O)cc1,398.0%[activator]
O=P(c1ccccc1)(c1ccccc1)N1CC2(CC2)CC(O)(c2ccccc2)C1 (stereo not given),-10.6%
CCN1CCN(C(=O)COc2cc(=O)n(CC)c3ccccc23)CC1,-21.2%
CC(O)C(C)OC(=O)[C@@H]1C[C@@H]2c3cccc4c3c(cn4C(C)C)C[C@H]2N(C)C1 (stereo not given in full),-15.7%
O=c1c2ccccc2nc(SCC2CCCCO2)n1-c1ccccc1 (stereo not given),-7.7%
C=C(CC1(CNP(=O)(c2ccccc2)c2ccccc2)CC1)c1ccccc1,-2.4%
O=C(Cc1ccccc1)N1CCN(Cc2ccccn2)CC1,-6.2%
CC1=CC(=C2C(=O)NC(=O)NC2=O)C=C(C(F)(F)F)N1C(C)C,-24.5%
CCC(=NCCc1ccccc1)c1c(O)n(C2CCCCC2)c(=O)[nH]c1=O,-16.1%
CCCCCCn1c(O)c(C=Nc2c(C)n(C)n(-c3ccccc3)c2=O)c(=O)[nH]c1=O,?
COC(=O)N(c1ccccc1)P1(=S)OCCO1,8.91µM*

# Continued (4 carried over from the part before).
SMILES,HPGD inh
CC1=CC(=C2C(=O)NC(=O)NC2=O)C=C(C(F)(F)F)N1C(C)C,-24.5%
CCC(=NCCc1ccccc1)c1c(O)n(C2CCCCC2)c(=O)[nH]c1=O,-16.1%
CCCCCCn1c(O)c(C=Nc2c(C)n(C)n(-c3ccccc3)c2=O)c(=O)[nH]c1=O,?
COC(=O)N(c1ccccc1)P1(=S)OCCO1,8.91µM*
c1ccc(NNc2ccccc2)cc1,4.2%
CCc1ccc(CNCCc2ccc(F)cc2)cc1,-7.7%
CC(C)CC12CN3CCN(CC(C3)/C1=N/O)C2,-7.0%
Clc1ccccc1Nc1ncnc(-n2cccc2)n1,-26.4%
CCCCCC[C@H]1C(=O)O[C@H](C)[C@H](NC(=O)c2cccc(NC=O)c2O)C(=O)O[C@@H](C)[C@@H]1OC(=O)CC(C)C,?
CCC(=O)Nc1ccc(Cl)c(Cl)c1,-25.6%
CCOC(=O)CSc1ncnc2c1cnn2-c1ccccc1,?
C=CCn1c(O)c(C(CC)=Nc2cc(OC)ccc2OC)c(=O)[nH]c1=O,-28.9%
O=C1NC(=O)C(=Cc2cn(CCOc3ccc4c(c3)OCO4)c3ccccc23)C(=O)N1,-16.1%
C[C@@H]1O[C@@H](OC2CC(O)C3(CO)C4C(CCC3(O)C2)C2(O)CCC(C3=CC(=O)OC3)C2(C)C[C@H]4O)[C@H](O)[C@H](O)[C@H]1O (stereo not given in full),-3.1%
c1ccc2sc(C3(N4CCCCC4)CCCCC3)cc2c1,8.6%&2.3%
C[C@@]1(CO)[C@H](O)CC[C@@]2(C)[C@H]1CC[C@H]1C[C@@H]3C[C@@]12CC[C@]3(O)CO,0.9%
COc1ccc(CCNC(=O)c2c(N)n(CCN3CCOCC3)c3nc4ccccc4nc23)cc1,?
CCC(=O)N1CC(=O)Nc2ccc(F)cc2C1c1ccccc1 (stereo not given),-10.8%
O=[N+]([O-])O[C@H]1CO[C@H]2[C@H]1OC[C@@H]2O[N+](=O)[O-],-4.7%
Oc1ccccc1-c1ccccc1,?
CN(C)Cc1c[nH]c2ccccc12,-28.4%&-9.9%
O=C(c1cccs1)N1C2CCC1CC(O)(c1cccnc1)C2 (stereo not given),2.2%
CCN(CC)CCNCC(=O)Nc1ccc(Cl)cc1C(=O)c1ccccc1,-2.5%
CCN(CC)CCNC(=O)c1nn(-c2ccc(C)cc2)c(=O)c2c1c1ccccc1n2C,?
CCCCCc1nc2ccccc2c(=O)n1-c1ccccc1[N+](=O)[O-],-9.5%

# An excerpt; the hit share may differ from the screen's.
